Assay outcomes deposited in PubChem BioAssay by Broad Institute.
NOMO-1 viab: STK33 inhibitor candidate reducing NOMO-1 cell viability; NOMO-1 AML viability, CellTiter-Glo luminescence, 72 h; inhibition, % (test concentration not listed); hit rate 7.5% among 37,000; AID 2330;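 active = most replicates above 80%; inconclusive = exactly half above 80%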;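 also: wells of about 30 µL received 25 nL stock; 0% = median of vehicle wells and 100% = reference inhibitor level; the first replicate is given; inactives centre near 10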
Numbers without * were called inactive; ? = inconclusive.

| canonical_smiles | NOMO-1 viab |
| --- | --- |
| C[C@H]1CN([C@@H](C)CO)C(=O)c2cc(NC(=O)C3CCCCC3)ccc2O[C@H]1CN(C)C(=O)Nc1ccc(C(F)(F)F)cc1 | 15 |
| O=C(Nc1sc2c(c1C(=O)NCc1cccnc1)CCCC2)c1cccs1 | 1 |
| Cc1ccc(S(=O)(=O)Nc2ccc3c(c2)C(=O)N([C@H](C)CO)C[C@@H](C)[C@H](CN(C)S(=O)(=O)c2ccccc2)O3)cc1 | 7 |
| COc1ccc(CN(C)C[C@H]2Oc3c(NS(=O)(=O)c4ccc(C)cc4)cccc3C(=O)N([C@H](C)CO)C[C@H]2C)cc1 | -12 |
| O=S(=O)(NC1c2cccc3cccc(c23)C1Sc1nnnn1-c1ccccc1)c1ccccc1 (stereo unspecified) | 44 |
| C[C@H](CO)N1C[C@H](C)[C@H](CN(C)S(C)(=O)=O)Oc2ccc(NS(C)(=O)=O)cc2CC1=O | 7 |
| Cc1cccc(C)c1N(CC(=O)N1CCN(C)CC1)S(C)(=O)=O | 5 |
| CCn1c(CNC(=O)c2ccc(OC)c(OC)c2)n[nH]c1=S | -9 |
| COc1ccc(NC(=O)N(C)C[C@@H]2Oc3ccc(NC(=O)c4ccncc4)cc3CC(=O)N([C@H](C)CO)C[C@H]2C)cc1 | 3 |
| C[C@H]1CN([C@@H](C)CO)C(=O)c2cccc(NC(=O)C3CC3)c2O[C@H]1CN(C)S(=O)(=O)c1ccccc1 | -14 |
| Cc1cc(C)c(NC(=O)C(CCS(C)(=O)=O)N2C(=O)c3ccc(Br)cc3C2=O)c(C)c1 (stereo unspecified) | -7 |
| CSc1ncc(Cl)c(C(=O)Nc2sc3c(c2C(=O)NCC2CCCO2)CCC3)n1 (stereo unspecified) | 6 |
| CC(C)NC(=O)Nc1cccc2c1O[C@H](CN(C)C(=O)Nc1ccc(C(F)(F)F)cc1)[C@@H](C)CN([C@H](C)CO)C2=O | 2 |
| Cc1noc(C)c1S(=O)(=O)Nc1cccc2c1O[C@H](CN(C)C(=O)Nc1ccccc1)[C@H](C)CN([C@H](C)CO)C2=O | 12 |
| CCOC(=O)c1c(NC(=O)CSc2nc(C)nc3sc4c(c23)CCC4)sc(C)c1C | -4 |
| C[C@H](CO)N1C[C@H](C)[C@H](CN(C)C(=O)Nc2ccc(F)cc2)Oc2ccc(N(C)C)cc2C1=O | -4 |
| Cc1ccc(S(=O)(=O)N(C)C[C@@H]2Oc3c(NC(=O)Nc4cccc5ccccc45)cccc3C(=O)N([C@@H](C)CO)C[C@H]2C)cc1 | 12 |
| COc1ccc(C(=O)NCC(=O)Nc2ccc(C)c(Cl)c2)cc1OC | 13 |
| C[C@H](CO)N1C[C@H](C)[C@H](CN(C)Cc2ccc(-c3ccccc3)cc2)Oc2c(NC(=O)C3CCOCC3)cccc2C1=O | 3 |
| COc1ccc(CN(C)C[C@@H]2Oc3c(NC(=O)Nc4ccc(OC)cc4)cccc3C(=O)N([C@@H](C)CO)C[C@H]2C)cc1 | 93* |
| Cn1nnnc1SCC(=O)Nc1cccc(NC(=O)C23CC4CC(CC(C4)C2)C3)c1 | 13 |
| C[C@@H]1CN([C@H](C)CO)C(=O)c2cccc(N(C)C)c2O[C@@H]1CN(C)Cc1ccc2c(c1)OCO2 | 30 |
| CNC(=O)c1ccc2nc(N)sc2c1 | 40 |
| COC(=O)c1c(NC(=O)c2ccc(Cn3cc(Cl)cn3)cc2)sc2c1CCC2 | 1 |
| Cc1noc(C)c1S(=O)(=O)Nc1cccc2c1O[C@@H](CN(C)S(=O)(=O)c1ccccc1)[C@@H](C)CN([C@H](C)CO)C2=O | -7 |
| O=C(CNS(=O)(=O)c1ccc(Cl)cc1)Nc1ccc(I)cc1 | 3 |
| C[C@H]1CN([C@@H](C)CO)C(=O)c2cc(NC(=O)Nc3ccccc3)ccc2O[C@@H]1CN(C)C(=O)Nc1ccc(C(F)(F)F)cc1 | 4 |
| Oc1ccc2oc3c(c2c1/C=N/N1CCCCC1)CCCC3 | 11 |
| CCc1ccc(C(Nc2ccccn2)c2ccc3ccc(C)nc3c2O)cc1 (stereo unspecified) | 110* |
| COc1ccc(CN(C)C[C@@H]2Oc3c(NS(=O)(=O)c4ccc(C)cc4)cccc3C(=O)N([C@H](C)CO)C[C@@H]2C)cc1 | 9 |
| Cc1ccc(S(=O)(=O)Nc2ccc3c(c2)CC(=O)N([C@H](C)CO)C[C@@H](C)[C@@H](CN(C)Cc2ccc(Oc4ccccc4)cc2)O3)cc1 | 115* |
| C[C@@H]1CN([C@H](C)CO)C(=O)c2cc(NC(=O)Nc3ccccc3)ccc2O[C@H]1CN(C)C(=O)Nc1ccccc1 | 21 |
| C[C@H](CO)N1C[C@H](C)[C@H](CN(C)Cc2ccc(-c3ccccc3)cc2)Oc2c(NS(=O)(=O)c3cccs3)cccc2C1=O | 26 |
| C[C@@H]1CN([C@H](C)CO)C(=O)c2cc(NC(=O)Nc3ccc(C(F)(F)F)cc3)ccc2O[C@@H]1CN(C)S(C)(=O)=O | -2 |
| Cc1cccc(OCC(=O)Nc2ccccc2C(=O)NC(C)(C)C)c1 | 13 |
| C[C@H](CO)N1C[C@H](C)[C@H](CN(C)S(=O)(=O)c2cccs2)Oc2c(NC(=O)Nc3ccccc3)cccc2C1=O | 18 |
| COc1ccc(NC(=O)Nc2cccc3c2O[C@H](CN(C)C(=O)NC(C)C)[C@H](C)CN([C@H](C)CO)C3=O)cc1 | 14 |
| CCC(C)C(O)C(C)(O)/C=C/C1=CC2=C(Cl)C(=O)C(C)(O)C(O)C2=CO1 (stereo unspecified) | ? |
| C[C@@H]1CN([C@@H](C)CO)C(=O)c2cccc(N(C)C)c2O[C@@H]1CN(C)Cc1ccc(-c2ccccc2)cc1 | 32 |
| Cc1ccc(S(=O)(=O)Nc2ccc3c(c2)C(=O)N([C@H](C)CO)C[C@H](C)[C@H](CN(C)C(=O)c2ccncc2)OCCCC[C@@H](C)O3)cc1 | -12 |
| Cc1ccc(NC(=O)CN(c2cc(Cl)c(Cl)cc2Cl)S(C)(=O)=O)cc1Cl | 84* |
| O=S(=O)(c1ccccc1)N1N=C(c2ccccc2)CC1c1ccco1 (stereo unspecified) | ? |
| C[C@@H]1CN([C@H](C)CO)C(=O)c2cc(NC(=O)Nc3ccc(C(F)(F)F)cc3)ccc2O[C@H]1CN(C)Cc1ccc(C(F)(F)F)cc1 | 114* |
| COc1ccc(N(CC(=O)Nc2ccccc2F)S(C)(=O)=O)cc1 | 40 |
| C[C@H]1CN([C@@H](C)CO)C(=O)Cc2cc(NC(=O)CCCCCC(=O)Nc3ccccc3N)ccc2O[C@@H]1CN(C)S(=O)(=O)c1cn(C)cn1 | -3 |
| CCn1c(SCC(=O)Nc2ccc(F)cc2)nnc1-c1ccc(Cl)cc1Cl | 32 |
| Cc1onc(-c2ccccc2)c1C(=O)N(CCC#N)CCC#N | 19 |
| Cc1ccc2nc(-c3ccc(NC(=O)CCN4C(=O)c5ccccc5C4=O)cc3)[nH]c2c1 | 63 |
| C[C@@H]1CN([C@@H](C)CO)C(=O)c2cc(NC(=O)C3CCCCC3)ccc2O[C@@H]1CN(C)S(=O)(=O)c1ccccc1 | 15 |
| CCOC(=O)CSc1nncc(=O)[nH]1 | 23 |
| CC(C)Oc1ccc(C2CC(=O)NNC2=O)cc1 (stereo unspecified) | -12 |
| Nc1cccc(-c2nnc(SCC(=O)c3ccc(F)cc3)n2-c2ccccc2)c1 | 15 |
| Cc1cccc(Oc2coc3cc(OCC(=O)Nc4ccccc4C(F)(F)F)ccc3c2=O)c1 | 23 |
| COc1ccc(NC(=O)N(C)C[C@@H]2Oc3ccc(NS(C)(=O)=O)cc3C(=O)N([C@H](C)CO)C[C@@H]2C)cc1 | -15 |
| Cc1c(C(=O)N(C)C)sc(NC(=O)c2cc(-c3cccnc3)nc3c(C)c(Cl)ccc23)c1C#N | -17 |
| COc1ccc(C)c(Cn2c(-c3nonc3N)nc3ccccc32)c1 | 112* |

Next part.
| canonical_smiles | NOMO-1 viab |
| --- | --- |
| Cc1ccc(N(C(C)C(=O)Nc2cccc(Br)c2)S(C)(=O)=O)cc1C (stereo unspecified) | 16 |
| Cc1sc2ncnc(SCC(=O)Nc3ccc(-c4nc5ccccc5s4)cc3)c2c1C | 19 |
| COc1ccc(S(=O)(=O)N(C)C[C@H]2Oc3c(NC(=O)NC(C)C)cccc3C(=O)N([C@H](C)CO)C[C@H]2C)cc1 | -18 |
| Cc1noc(C)c1NC(=O)N(C)C[C@H]1OCCCC[C@@H](C)Oc2ccc(NS(C)(=O)=O)cc2C(=O)N([C@H](C)CO)C[C@@H]1C | 2 |
| Cc1cc(-c2ccccc2)nc(SCC(=O)Nc2sc3c(c2C#N)CCCC3)n1 | 67 |
| C[C@@H]1CN([C@H](C)CO)C(=O)c2cccc(NC(=O)c3cnccn3)c2O[C@@H]1CN(C)Cc1ccncc1 | 13 |
| C[C@@H]1CN([C@@H](C)CO)C(=O)c2cc(NC(=O)C3CCCCC3)ccc2O[C@H]1CN(C)Cc1ccc(C(F)(F)F)cc1 | 49 |
| c1ccc2c(c1)CCc1c-2nc2ccccc2c1N1CCOCC1 | 63 |

An excerpt from above in order of heavy-atom count, smallest number first:
| canonical_smiles | NOMO-1 viab |
| --- | --- |
| Cc1ccc(N(C(C)C(=O)Nc2cccc(Br)c2)S(C)(=O)=O)cc1C (stereo unspecified) | 16 |
| C[C@@H]1CN([C@H](C)CO)C(=O)c2cccc(NC(=O)c3cnccn3)c2O[C@@H]1CN(C)Cc1ccncc1 | 13 |
| C[C@@H]1CN([C@@H](C)CO)C(=O)c2cc(NC(=O)C3CCCCC3)ccc2O[C@H]1CN(C)Cc1ccc(C(F)(F)F)cc1 | 49 |

(cont.)
| canonical_smiles | NOMO-1 viab |
| --- | --- |
| C[C@@H]1CN([C@H](C)CO)C(=O)c2cccc(NC(=O)c3ccc(-c4nccs4)cc3)c2O[C@H]1CN(C)Cc1ccc(C(=O)Nc2ccccc2N)cc1 | 128* |
| C[C@H]1CN([C@@H](C)CO)C(=O)Cc2cc(NC(=O)CCN3CCOCC3)ccc2O[C@H]1CN(C)S(=O)(=O)c1ccc(F)cc1 | 15 |
| COc1ccc(CN(C)C[C@H]2Oc3ccc(NC(=O)Cc4cn(C)c5ccccc45)cc3C(=O)N([C@H](C)CO)C[C@@H]2C)cc1 | -8 |
| CNC[C@@H]1Oc2c(NC(=O)Nc3ccc(F)cc3)cccc2C(=O)N([C@@H](C)CO)C[C@H]1C | 4 |
| COc1ccc(OC)c(S(=O)(=O)N2CCC(C(=O)Nc3ccc(Oc4ccccc4)cc3)CC2)c1 | 45 |
| C[C@H]1CN([C@@H](C)CO)C(=O)c2cc(NC(=O)CCC(F)(F)F)ccc2O[C@@H]1CN(C)S(=O)(=O)c1ccccc1 | -4 |
| C[C@H](CO)N1C[C@H](C)[C@H](CN(C)C(=O)Nc2ccc(C(F)(F)F)cc2)Oc2ccc(NC(=O)CCCCCC(=O)Nc3ccccc3N)cc2C1=O | 11 |
| C[C@@H]1CN([C@@H](C)CO)C(=O)c2cc(NC(=O)Nc3ccc(C(F)(F)F)cc3)ccc2O[C@@H]1CN(C)Cc1ccc(C(=O)O)cc1 | 6 |
| C[C@H]1CN([C@@H](C)CO)C(=O)c2cc(NC(=O)C3CC3)ccc2O[C@@H]1CN(C)Cc1ccc(Oc2ccccc2)cc1 | 16 |
| C[C@@H]1CN([C@@H](C)CO)C(=O)c2cc(NC(=O)Nc3ccccc3)ccc2O[C@H]1CN(C)Cc1ccc(Oc2ccccc2)cc1 | 112* |
| Cc1ccc(OCC(=O)Nc2ccc3oc(-c4cccc(F)c4)nc3c2)c(C)c1 | 5 |
| Cc1sc2ncnc(SCC(=O)Nc3ccc(C(N)=O)cc3)c2c1C | -3 |
| Cc1cccc(NC(=O)c2ccccc2NC(=O)COc2ccccc2)c1C | 35 |
| C[C@H](CO)N1C[C@H](C)[C@H](CN(C)Cc2ccc(Cl)c(Cl)c2)Oc2ccc(NC(=O)CCCN(C)C)cc2C1=O | 8 |
| CNC[C@H]1Oc2c(NC(=O)Nc3c(C)noc3C)cccc2C(=O)N([C@@H](C)CO)C[C@H]1C | -2 |
| C[C@@H]1CN([C@H](C)CO)C(=O)Cc2cc(NC(=O)Nc3ccc(C(F)(F)F)cc3)ccc2O[C@@H]1CN(C)Cc1ccncc1 | ? |

Brought forward from above: two entries, followed by the next part.
| canonical_smiles | NOMO-1 viab |
| --- | --- |
| CNC[C@H]1Oc2c(NC(=O)Nc3c(C)noc3C)cccc2C(=O)N([C@@H](C)CO)C[C@H]1C | -2 |
| C[C@@H]1CN([C@H](C)CO)C(=O)Cc2cc(NC(=O)Nc3ccc(C(F)(F)F)cc3)ccc2O[C@@H]1CN(C)Cc1ccncc1 | ? |
| C[C@@H]1CN([C@H](C)CO)C(=O)c2cc(NC(=O)Cc3cn(C)c4ccccc34)ccc2O[C@@H]1CN(C)Cc1ccc(Cl)c(Cl)c1 | 112* |
| COc1ccccc1NC(=O)CN(c1cc(Cl)c(Cl)cc1Cl)S(C)(=O)=O | 1 |
| Cc1noc(C)c1S(=O)(=O)Nc1ccc2c(c1)C(=O)N([C@@H](C)CO)C[C@H](C)[C@@H](CN(C)S(=O)(=O)c1cccs1)O2 | 5 |
| COc1ccc(NC(=O)Nc2cccc3c2O[C@@H](CN(C)S(=O)(=O)c2ccc(Cl)cc2)[C@@H](C)CN([C@H](C)CO)C3=O)cc1 | 1 |
| O=C(Nc1ccc(C2=NCCO2)cc1)c1ccc(C(F)(F)F)cc1 | 38 |
| C[C@@H]1CN([C@@H](C)CO)C(=O)c2cccc(NS(=O)(=O)c3ccccc3)c2O[C@H]1CN(C)S(=O)(=O)c1cn(C)cn1 | -8 |
| Cc1noc(C)c1NC(=O)N(C)C[C@@H]1Oc2ccc(NC(=O)NC3CCCCC3)cc2C(=O)N([C@@H](C)CO)C[C@H]1C | -32 |
| C[C@@H]1CN([C@H](C)CO)C(=O)c2cccc(NC(=O)Nc3ccc(F)cc3)c2O[C@H]1CN(C)S(=O)(=O)c1ccccc1 | 3 |
| C[C@H](CO)N1C[C@H](C)[C@@H](CN(C)Cc2ccc3c(c2)OCO3)Oc2c(NC(=O)Nc3cccc4ccccc34)cccc2C1=O | ? |
| C[C@@H]1CN([C@H](C)CO)C(=O)c2cc(NC(=O)Nc3ccc4c(c3)OCO4)ccc2O[C@@H]1CN(C)S(=O)(=O)c1cn(C)cn1 | 35 |

Only part of the results is shown. The share of hits here may be higher or lower than overall.
